Screening results: PubChem, several laboratories
FGF22 binding – binders of recombinant human FGF22 by thermal shift. SYPRO orange fluorescence; percent of sucrose octasulfate shift, DMSO zero. 1.5% of 340,000 active. calls only at 9.99 µM;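 active means melting point raised past a set limit in the mean and every replicate; inconclusive means no clear call; three in four hits are not shown here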
Target sequence (Q9HCT0 whole entry, looked up): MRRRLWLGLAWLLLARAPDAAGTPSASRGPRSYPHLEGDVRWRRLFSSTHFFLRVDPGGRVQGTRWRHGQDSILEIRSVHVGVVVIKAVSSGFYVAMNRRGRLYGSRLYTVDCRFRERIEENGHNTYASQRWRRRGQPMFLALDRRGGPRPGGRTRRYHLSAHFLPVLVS
UCH37 DUB inh – blocks the human deubiquitinase UCH37; 0.33% of 330,000 active; purified proteasome/UCH37, Ub-AMC cleavage fluorescence; inhibition, % (no concentration beside the values); Q9Y5K5; AID 588478;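 active means mean of two replicates above 20%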;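 further: 0% = compound-free wells with enzyme and 100% = wells lacking proteasome; stock transfer was 100 nL into about 20 µL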
Target sequence (Q9Y5K5 whole entry, looked up): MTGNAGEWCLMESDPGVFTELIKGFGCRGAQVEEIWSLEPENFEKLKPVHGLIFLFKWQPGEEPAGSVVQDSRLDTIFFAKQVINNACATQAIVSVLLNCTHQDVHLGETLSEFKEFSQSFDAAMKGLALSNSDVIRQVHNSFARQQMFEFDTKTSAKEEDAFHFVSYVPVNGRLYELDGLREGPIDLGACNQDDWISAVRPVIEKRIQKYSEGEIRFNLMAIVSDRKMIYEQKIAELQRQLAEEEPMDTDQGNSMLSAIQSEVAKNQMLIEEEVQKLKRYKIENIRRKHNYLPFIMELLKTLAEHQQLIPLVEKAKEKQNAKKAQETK
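system = Proteasome-associated human UCH37 deubiquitinase | amount = 0.15 nM proteasome as dispensed | medium = pH 7.4 Tris-HCl (50 mM) with ovalbumin, ATP-MgCl2, DTT | incubation = 30 min preincubation with enzyme, 25 min cleavage at room temperature | detection = AMC fluorescence 355/460 nm | read-out basis = percent inhibition | controls = no-proteasome and no-compound wells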
AF4-AF9 inh – MLL-AF4/AF9 protein interaction inhibition | AID 651704 | inhibition, % at 10 µM | 0.47% of 350,000 active | AlphaScreen, biotin-AF4 peptide binding to FLAG-AF9 | P42568;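 active means every replicate reaching a set inhibition limit, whatever the replicate mean, cut at about 25% in these data; inconclusive means mean inhibition reaches that limit but some replicates miss it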;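 further: 0% = plate neutral control median and 100% = total signal loss; the record names both 10 and 1 µM as test concentration; the first replicate is given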
HNF4A DNA FP – change in binding of human HNF4 alpha to DNA. P41235. HNF4a-FITC DNA binding, fluorescence polarization, 1 h. activity change, % at 10 µM. 0.3% of 360,000 active. AID 1224865; in the data active means activity change above about 30%, passing the limit was not always enough;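 further: controls were the assay level and a saturating level of protein; the project sought stronger binding though the title names inhibitors; some compounds called inactive have numbers as strong as hits; positive values seem to mean higher polarization but the record does not say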
Target sequence (P41235 whole entry, looked up): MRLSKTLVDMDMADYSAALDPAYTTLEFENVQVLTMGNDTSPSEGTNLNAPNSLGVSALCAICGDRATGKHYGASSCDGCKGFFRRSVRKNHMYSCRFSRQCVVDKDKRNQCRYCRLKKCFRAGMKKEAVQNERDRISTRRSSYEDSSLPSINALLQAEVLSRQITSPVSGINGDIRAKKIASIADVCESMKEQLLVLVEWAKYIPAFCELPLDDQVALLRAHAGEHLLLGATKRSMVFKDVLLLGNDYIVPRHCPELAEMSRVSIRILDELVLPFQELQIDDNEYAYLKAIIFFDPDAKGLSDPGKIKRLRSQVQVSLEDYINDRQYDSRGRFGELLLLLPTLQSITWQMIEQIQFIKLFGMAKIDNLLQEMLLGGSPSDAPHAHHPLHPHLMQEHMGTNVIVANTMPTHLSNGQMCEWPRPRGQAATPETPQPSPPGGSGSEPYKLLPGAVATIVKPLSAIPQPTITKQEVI
Vif A3G – inhibitors of Vif binding to APOBEC3G peptide, primary screen, biochemical, TR-FRET, GST-Vif 1-94, biotin-A3G peptide, dose response retest (AID 1117319) | one-dose inhibition, %; IC50 in µM for titrated hits | 0.57% of 260,000 active | TR-FRET GST-Vif / biotin-A3G peptide binding; higher % means a stronger effect; test concentration not given here; strong numbers were not always called active;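 active means above the screen mean plus three standard deviations and confirmed in dose response; inconclusive means results disagree or hit not tested in dose response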;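 further: Vif residues 1-94 fused to GST binding biotinylated APOBEC3G peptide 110-148; 0% = full assay without inhibitor and 100% = GST in place of GST-Vif; retest series ran down from 100 µM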
RanGTP-Impb inh – disruptors of Ran-importin-beta complex formation – biochemical, FRET, CFP-Ran, YFP-importin-beta, homogeneous, primary screen; cell-free CFP-Ran/YFP-importin-beta FRET ratio; inhibition, % (no concentration beside the values); 1.1% of 300,000 active;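 active means most replicates above 15%; inconclusive means exactly half above 15%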;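 further: 0% = DMSO wells and 100% = Ran loaded with GDP instead of GTP; wells of about 40 µL received 100 nL stock; the first replicate is given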
E coli growth – inhibitors of Escherichia coli growth | OD600, 23 h; hits give low values | OD600 absorbance (no concentration beside the values) | 0.21% of 330,000 active | AID 1053175;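 active means OD600 absorbance below the run mean of sample wells minus 3.6 SD, in any replicate, cut at about 0.56 in these data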;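 further: stock transfer was 300 nL into about 60 µL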
Starred values were filed as active, the others as inactive; i = inactive; ? = inconclusive; / = not tested or not shown. Some of the compounds tested; count on the stated rates, not on these rows.

SMILES	FGF22 binding	UCH37 DUB inh	AF4-AF9 inh	HNF4A DNA FP	Vif A3G	RanGTP-Impb inh	E coli growth
O=C(CN1C(=O)CSc2ccc(S(=O)(=O)N3CCCCC3)cc21)NCc1ccccc1	i	0.5	0.9	-2.8	/	4.1	0.651
O=C(Nc1ccccc1Oc1cccnc1)C1CCCN(Cc2cccc(Cl)c2)C1 (stereo not drawn)	i	/	1.4	3.4	/	4.3	/
CCOC(=O)c1nn(-c2ccc(Cl)cc2)cc1O	i	-4.4	/	2.2	8.2%	-2.2	0.659
O=C(O)CSCC(=O)NCc1csc2ccc(Cl)cc12	i	3.1	-4.2	-6.2	/	-1.0	0.702
Cc1cc(Cl)ccc1OCC(=O)NCCCCc1ccccc1	/	3.9	/	-2.4	/	1.6	0.663
Cc1nc2ccc(NC(=O)c3cccs3)cc2s1	i	1.4	-15.3	2.3	/	1.3	0.635
Cc1ccsc1-c1nc(CN(C)C(C2CC2)C2CC2)c(C)o1	i	-11.5	0.3	0.3	4.2%	0.7	0.639
O=C(Nc1cc2c(cc1Br)OCCO2)c1cccs1	/	1.3	/	-1.3	3.8%	-3.3	0.649
CC(C)(C)C(=O)Nc1nnc(SCC(=O)NCc2cccs2)s1	/	1.8	/	-1.5	-0.7%	1.7	0.671
CCOc1ccccc1N1CCN(C(=O)c2cc3c(C)cc(C)cc3[nH]2)CC1	i	4.2	5.0	-2.3	-9.4%	1.1	0.614
COc1cc(OC)cc(C(=O)Nc2cccc(N3CCCC3)c2)c1	i	-4.9	5.9	7.3	-1.6%	?	0.708
Cc1c(C)[n+](=O)c(-c2ccco2)c(C)n1[O-]	/	3.6	/	5.4	4.7%	4.3	0.651
Cc1ccc(C(=O)Nc2ccc(S(=O)(=O)N3CCOCC3)cc2)cc1C	i	2.4	-4.7	0.1	-1.2%	6.5	0.624
Cc1[nH]n(-c2ccccc2)c(=O)c1C(c1ccc(C(=O)O)cc1)c1c(C)[nH]n(-c2ccccc2)c1=O	i	8.1	6.6	1.8	12.2%	2.9	0.679
COc1ccc(CNC(=O)CCNS(=O)(=O)c2cc(Br)cnc2N)cc1	/	-5.9	/	-4.5	15.8%	-1.1	0.666
Nc1cc(N)nc(SCC(=O)NCCC2=CCCCC2)n1	i	0.2	-2.2	2.3	1.2%	1.2	0.714
CCCCOc1[nH]c2nc(-c3ccco3)n(Cc3ccco3)c(=N)c2c1C#N	/	-15.3	/	-32.4	?	-36.3	0.683
O=c1cccccc1NN=C1CCCCCC1	i	1.6	-2.2	-1.3	32.4%	4.6	0.648
O=C(N/N=C/c1ccc(F)c(F)c1)c1cccc(S(=O)(=O)N2CCCCC2)c1	i	/	0.5	-0.7	4.3%	/	/
COc1ccc(C2C3=C(CCCC3=O)Nc3nc(SCc4ccccc4)nn32)cc1OC (stereo not drawn)	/	-2.5	/	-0.8	-2.0%	-0.4	0.727

Just HNF4A DNA FP (three entries from above):
SMILES,HNF4A DNA FP
O=c1cccccc1NN=C1CCCCCC1,-1.3
O=C(N/N=C/c1ccc(F)c(F)c1)c1cccc(S(=O)(=O)N2CCCCC2)c1,-0.7
COc1ccc(C2C3=C(CCCC3=O)Nc3nc(SCc4ccccc4)nn32)cc1OC (stereo not drawn),-0.8

(cont.)
SMILES	FGF22 binding	UCH37 DUB inh	AF4-AF9 inh	HNF4A DNA FP	Vif A3G	RanGTP-Impb inh	E coli growth
Cc1cnc(C(=O)OCC(=O)c2cc(C)n(CCc3ccc(F)cc3)c2C)cn1	i	/	2.3	0.8	-10.7%	/	/
CCOC(=O)c1ccc(NC(=O)CCc2ccc(CC)o2)cc1	/	1.3	/	0.3	9.0%	2.0	0.709
O=C(Nc1ccc(Cl)cc1C(=O)NCc1cccnc1)c1ccc(Cl)cc1Cl	i	2.9	-4.2	-3.3	/	?	0.715
Cc1nn(C)c(Cl)c1CN1CCN(C2CCCC2)C(CCO)C1 (stereo not drawn)	i	3.1	-2.1	-3.1	/	2.2	0.67
CCOc1nc2cnccc2n(CC(=O)Nc2cccc(C)c2C)c1=O	i	0.8	0.4	2.5	/	2.0	0.696
CCn1cnnc1SCC(=O)c1c(N)n(C2CC2)c(=O)[nH]c1=O	i	-1.5	0.4	-2.2	2.5%	/	0.721
COc1cc(C(=O)NNC(=O)CN2C(=O)NC(C)(c3ccc(C)cc3)C2=O)cc(OC)c1OC (stereo not drawn)	i	-2.2	1.2	-3.1	?	/	0.655
Cc1cccc(OCC(=O)NNC(=O)CCN2CCN(c3ccccc3)CC2)c1C	i	3.9	-2.0	5.6	-9.8%	/	0.686
O=C(Cn1cnc2cc([N+](=O)[O-])ccc2c1=O)Nc1ccccc1-c1ccccc1	i	0.4	-0.1	0.5	-11.0%	1.1	0.664
COc1cc(OC)cc(C(=O)Nc2c(C)nn(-c3ccccc3)c2C)c1	i	6.1	0.2	-0.9	-3.6%	0.5	0.682
CCN(CC)S(=O)(=O)c1csc(C(=O)NC2CCCCC2)c1	/	0.6	/	-0.6	-2.2%	4.9	0.713
Cc1c(C(=O)Nc2ccc3c(c2)OCO3)sc2nc(-c3ccccc3)cn12	/	3.5	/	1.2	-16.9%	-4.6	0.727
Cn1nnnc1SCC(=O)Nc1ccc(Cl)cn1	i	-0.6	-0.3	-1.5	/	4.6	0.701
Cc1cccc(-c2ncc(CN3CCCC(CO)(Cc4cccc(Cl)c4)C3)cn2)c1 (stereo not drawn)	i	1.1	-13.7	3.8	-3.4%	2.2	0.66
Cc1ccc(NC(=O)c2ncn(CCCN3CCN(Cc4cccc5ccccc45)CC3)n2)cc1C	/	/	2.5	-1.0	5.7%	/	/
Cc1c(N=Cc2nc3ccccc3[nH]2)c(=O)n(-c2ccccc2)n1C	/	4.0	/	-0.6	-0.8%	2.8	0.675
Cc1ccc(NC(=O)COC(=O)c2cccc3c2C(=O)c2ccccc2C3=O)c(C)c1	/	1.7	/	-2.5	9.5%	0.0	0.699
Nc1c(N(CCCO)C(=O)C2CCCCC2)c(=O)[nH]c(=O)n1Cc1ccccc1	i	0.4	-0.9	-7.7	/	/	0.696
CCCc1cc(-c2n[nH]c(=S)n2C(C)c2ccccc2)cs1 (stereo not drawn)	/	2.9	/	-0.9	4.4%	-1.9	0.629
Cc1cc(Cl)ccc1OCC(=O)NCCCn1ccnc1	i	0.3	1.5	2.4	/	0.6	0.63
CCOC(=O)N1CCC(N2CCCC(C(=O)c3cc(C)c(OC)c(C)c3)C2)CC1 (stereo not drawn)	/	0.3	/	2.3	14.5%	?	0.617
CCC(=O)N1Cc2cc(C(=O)NCc3cccc(F)c3)nc(-c3cccc(C4=CCCC4)c3)c2[C@H]1CCO	i	/	0.3	-0.5	/	/	/
CC(C)CC(NC(=O)OC(C)(C)C)c1cn([C@@H](CCCCNC(=O)OC(C)(C)C)C(=O)N2CCN(C(=O)OC(C)(C)C)CC2)nn1 (stereo partly drawn)	/	1.2	/	2.6	-12.0%	3.5	/
Cc1ccc(OCC(O)CNS(=O)(=O)c2ccccc2C(=O)N2CCCCC2)cc1 (stereo not drawn)	/	-0.5	/	1.6	2.6%	1.5	0.617
Cc1ccc(Cc2cc(-c3ccc(C)cc3)n[nH]c2=O)cc1	i	3.2	-1.8	5.1	0.9%	2.6	0.673
Cc1ccc(OCCCCNC(C)(C)C)c([N+](=O)[O-])c1	/	1.7	/	2.6	12.3%	1.6	0.626
O=C(Nc1cccc(F)c1)NC1CC2CCCC(C1)N2C1CC1 (stereo not drawn)	/	2.1	/	-1.1	5.3%	?	0.685
Cc1cc(C(=O)CSc2n[nH]c(N)n2)c(C)n1-c1cc(F)ccc1F	/	5.4	/	2.0	20.6%	-1.2	0.707
CCNC(=S)NC1CC2CCCC(C1)N2Cc1ccc(C)cc1 (stereo not drawn)	i	6.1	0.4	-3.3	-2.2%	-5.6	0.663
O=C(O)c1cccc(Cn2c(Cl)c(/C=N/NC(=O)c3cccc(O)c3)sc2=O)c1	i	/	3.6	0.8	14.3%	8.6	/
Cc1cc(/C=N/O)c(C)n1-c1cccc(Cl)c1	i	/	6.8	6.1	?	-2.4	/
C=CC[n+]1c(-c2ccccc2)csc1NC(C)(C)C	i	1.0	18.3	2.6	-0.5%	3.5	0.694
CCOC(=O)C1CC(C)=C(C)CC1C(=O)O (stereo not drawn)	i	2.7	-8.5	-1.9	-4.1%	-0.4	0.673
COc1cc(-c2cc3nc(NCCc4ccc(S(N)(=O)=O)cc4)ccn3n2)cc(OC)c1OC	i	/	-1.4	-2.2	/	/	/
Cn1c(=O)[nH]c(=O)c2c1nc(Br)n2Cc1cccc(Br)c1	i	1.8	2.9	-2.5	/	3.4	0.734
O=C(COc1ccc2ccccc2c1)NC1CC1	/	1.0	/	-0.6	3.8%	?	0.73
Cn1c(SCc2n[nH]c(=S)n2-c2ccccc2)nnc1-c1ccccc1	i	1.5	-5.7	-0.5	1.4%	-0.3	0.71
Cc1cccc(CN2CCN(CC(=O)N3CCCC3)C2=O)c1	/	-0.6	/	-3.2	?	0.1	0.715
NC(=O)N(CCC(=O)O)c1ccccc1	/	0.4	/	-2.7	?	2.1	0.703
Cc1cc(C(F)(F)F)nn1CC(=O)NNC(=S)Nc1ccc(Cl)cc1	/	1.7	/	1.9	-0.9%	0.8	0.698
O=C(NC(=S)N1CCCC1)c1ccccc1	i	/	0.1	2.1	11.8%	-3.0	/
COc1ccc(N2C(=NC(C)=O)SC3CS(=O)(=O)CC32)cc1OC (stereo not drawn)	/	2.0	/	3.1	5.4%	2.8	0.74
CCOc1ccc(N2CC(O)=C(c3ccccc3)C2=N)cc1	i	-0.7	-3.0	-2.4	0.6%	-1.2	0.631
CCCc1cc(C(=O)Nc2c(C)n(C)n(-c3ccccc3)c2=O)no1	i	4.9	0.7	3.6	-4.4%	-4.3	0.739
COc1cc(C)ccc1OCCOCCOc1ccccc1[N+](=O)[O-]	i	0.7	4.0	0.4	6.5%	2.7	0.712
Cc1cn(Cc2ccccc2Cn2cc(C)c(=O)[nH]c2=O)c(=O)[nH]c1=O	i	-0.5	-8.3	2.0	-10.4%	1.6	0.696
CCN(CC(O)CON=C1c2ccccc2-c2ccccc21)S(=O)(=O)c1ccc(C)cc1 (stereo not drawn)	/	2.2	/	-2.4	/	0.4	/
COc1ccc(-c2nnc(SC(C)C(=O)NCc3ccc4c(c3)OCO4)n2Cc2ccco2)cc1 (stereo not drawn)	/	0.7	/	-1.9	2.0%	?	/
Cc1ccc(S(=O)(=O)NCC2CCC(C(=O)NCc3ccc4c(c3)OCO4)CC2)cc1 (stereo not drawn)	i	-0.1	-8.6	-0.9	-1.0%	2.3	0.718
C=CCN(C(=O)CNC(=O)c1ccco1)C(C(=O)NC1CCCC1)c1ccc(OC)cc1 (stereo not drawn)	i	4.0	0.4	3.0	-3.2%	3.6	0.66
COc1ccc(NC(=O)C2Cc3c(-c4cccc(NC(C)=O)c4)ccnc3O2)cc1 (stereo not drawn)	i	/	1.3	-1.8	/	/	/
Cc1ccc(NNC(=O)c2ccc(Cl)cc2)nn1	i	2.1	-9.6	3.0	-0.3%	4.8	0.664
NC(COCc1ccccc1)c1csc(NC(=O)Nc2cccc(C(F)(F)F)c2)n1 (stereo not drawn)	i	/	12.2	6.1	/	/	/
Cc1ccc(C(=O)N2CCN(S(=O)(=O)c3ccccc3)CC2)s1	i	0.6	8.2	0.9	-5.8%	-1.5	0.688
